From PubChem
2A Renilla – lowers the Renilla signal of an FMDV 2A StopGo reporter. Potency, µM (doses to about 57.5 µM), for the others: top-dose signal change, negative = less light. HEK cells with a luciferase reporter of 2A StopGo recoding. AID 1745857. hit rate 0.32% among 120,000; active means well fitted falling curve with a large enough effect; inconclusive means small, poorly fitted or top-dose-only effect; inactive means no such curve, though single readings can be large or run the other way; further: nearly all actives have a fitted effect of over 55% in size; overnight with compound
StopGo FLuc – lowers the firefly signal of an FMDV 2A StopGo reporter | HEK cells with a luciferase reporter of 2A StopGo recoding | Potency, µM (highest dose often 57.5 µM), for inactives: top-dose signal change, negative = less light | hit rate 0.23% among 120,000 | AID 1745856; active = well fitted falling curve with a large enough effect; inconclusive = small, poorly fitted or top-dose-only effect; inactive = no such curve, though single readings can be large or run the other way; further: nearly all actives have a fitted effect of over 60% in size; overnight with compound
Active calls of the source: *; ? = inconclusive; [ ] = another dose, or the depositor's remark. On the % scale 0 is the no-effect control and ±100 the full control effect; potency means the concentration at half of the fitted maximal effect. Only part of the results is shown; count on the stated rates, not on these rows.

compound | 2A Renilla | StopGo FLuc
Cn1c(=O)[nH]c(=O)c2c1nc(NCCc1ccccc1)n2Cc1cccc2ccccc12 | -10% | -4%
Clc1ccccc1-c1noc(CSc2nnc(N3CCOCC3)n2Cc2ccccc2)n1 | 8% | 15%
CCOc1ccc(NC(=O)Cn2c(=O)n(CCCC(=O)NCCc3ccc(Cl)cc3)c(=O)c3ccccc32)cc1 | -10% | -4%
COc1ccc2c(C)c(CC(=O)Nc3nc4ccccc4[nH]3)c(=O)oc2c1 | -4% | 4%
Cc1ccc(CNC(=O)Cn2ncc3c([nH]c4ccc(C)cc43)c2=O)cc1 | -10% | -5%
CCOc1ccc(-c2cc(-c3nc(-c4cccnc4)no3)[nH]n2)cc1 | 1% | 19%
Cc1c(-c2cccc(Cl)c2)nc2ccccc2c1C(=O)NC1CCCCCC1 | 21% | -6%
CCOC(=O)c1c(C)oc2ncnc(N3CCN(c4ccccc4F)CC3)c12 | ? | ?
CCCCOc1ccc(NC(=O)COc2ccc(C)c(C)c2)c2cccnc12 | 0% | 13%
Cc1c(-c2ccccc2)oc2c(C(=O)N3CCN(Cc4ccccc4)CC3)cccc2c1=O | 0% | -17%
COc1ccc(CCNc2nc(C)nc3sc4c(c23)CCCC4)cc1OC | ? | ?
CCCCn1c(=O)n(CC(=O)c2cc(C)n(C)c2C)c(=O)c2c1ncn2Cc1ccccc1 | 80%[activator] | 80%[activator]
Cc1ccc(Cl)cc1NC(=O)CSc1nc2ccccc2c2nc(-c3ccccc3)nn12 | 39%[activator] | -4%
COc1ccc(N2CCN(C(=O)COCc3cc(-c4ccc5c(c4)OCO5)on3)CC2)cc1 | 6% | -14%
COc1cccc(-c2nn(-c3ccccc3)cc2C(=O)NCC(C)(C)N2CCOCC2)c1 | 10% | 10%
Cc1cc2c(c(=O)n1CCc1ccccc1)C(c1cccc(Cl)c1)C(C#N)=C(N)O2 (configuration not stated) | -1% | -5%
COc1ccc(NC(=O)C2=C(C)NC(=O)NC2c2cccc(OCc3ccccc3)c2)cc1 (configuration not stated) | -3% | 15%
CCN1CCN(CCCNC(=O)Cn2c(-c3cccs3)cc3ccccc32)CC1 | -18% | -10%
COc1cc(C(=O)O)cc(CC(C)Cl)c1OC (configuration not stated) | 4%[1.06 µM] | 17%
COc1cc(/C=N/O)cc(I)c1O | 18% | 10%
O=C(COc1ccccc1)Nc1cccc(-c2nc3cc(Cl)ccc3o2)c1 | 1% | 11%
CC(C)CC(=O)Nc1c(C(=O)N2CCN(c3ccccc3F)CC2)oc2ccccc12 | -4% | -13%
CCOc1ccc(-c2nc(CSCC(=O)NCc3ccc(C)cc3)c(C)o2)cc1 | -10% | -26%
CCc1ccc(OCC(=O)Nc2ccc(-c3nc4ncccc4o3)cc2)cc1 | 13% | 78%[activator]
CC(NC(=O)c1ccc2c(c1)NC(=O)CS2)c1ccco1 (configuration not stated) | 19% | 12%
Cc1ccc(C(=O)Nc2c(-c3ccccc3)nc3ccccn23)cc1 | -6% | -8%
CCOC(=O)Cc1nnc(SC(C)C(=O)Nc2ccc(C)c(F)c2)n1C (configuration not stated) | -7% | -8%
CCCNc1nc(-c2ccc(Cl)cc2Cl)cs1 | 14% | 177%[activator]
C#C[C@]1(O)CC[C@H]2[C@@H]3CCc4cc(O)ccc4[C@H]3CC[C@@]21C | 18% | 1%[11.5 µM]
COc1cccc(Nc2nc(N)c(C(=O)c3ccc(OC)c(OC)c3OC)s2)c1 | 0% | 29%
COc1ccc(Nc2nc(C)c(NC(=O)c3cccc(C)c3)c(Nc3ccc(OC)cc3)n2)cc1 | -30% | ?
Cc1ccc(NC(=O)c2ccc3c(=O)n4nc(Nc5ccccc5C)sc4nc3c2)cc1C | -13% | -3%
Cc1cc(C)c(S(=O)(=O)Nc2ccc(S(=O)(=O)C3CCCC3)cc2)c(C)c1 | 311%[activator] | 2%
O=[N+]([O-])c1cc(S(=O)(=O)Nc2ccccc2NS(=O)(=O)c2cccs2)ccc1Cl | 88%[activator] | 16%
Cc1cc(C)n(-c2ccc(C(=O)OCC(=O)NC(=O)NC3CCCC3)cc2)n1 | -10% | 4%
N#Cc1ccccc1COC(=O)C1(c2ccccc2)CC1 | 6% | 0%
COc1ccc(-c2nc3scc(CCNS(=O)(=O)c4cccc(C(C)=O)c4)n3n2)cc1 | 124%[activator] | -2%
Cc1nn(CCC(=O)Nc2cccc(C#N)c2)c(C)c1S(=O)(=O)N1CCCCC1 | 5% | -18%
CC1CCCN(c2ccc3ncccc3c2[N+](=O)[O-])C1 (configuration not stated) | -5% | 25%
c1ccc(CN2CCc3c(sc4c3c(N3CCOCC3)nc3nnnn34)C2)cc1 | 5% | 2%
CN=c1scc(-c2cccs2)n1/N=C/c1ccccc1 | ? | ?
CCCCSCCCNC(=O)c1cn(CC)c2ccc(S(=O)(=O)N3CCOCC3)cc2c1=O | 43%[activator] | 1%
CN1CCN(CC(C)(C)NS(=O)(=O)c2ccccc2)CC1 | -14% | -8%
CCn1c(COc2ccc(Cl)c(C)c2)n[nH]c1=S | -10% | 0%
c1cc(OCc2ccc3c(c2)OCCO3)ccc1CNCC1CCCO1 (configuration not stated) | -13% | 128%[activator]
O=C(Nc1ccc(F)cc1)c1ncn(-c2ccccc2)n1 | 6% | 74%[activator]
CNC(=O)NC(=O)CSc1cc(C)c2cccc(C)c2n1 | 0% | 7%
CC(SC(C)c1c(F)cccc1F)C(=O)NC(N)=O (configuration not stated) | 6% | -3%
Cc1ccc(-c2ccc(=O)n(CC(=O)Nc3c(C)cccc3C)n2)cc1S(=O)(=O)N1CCCCC1 | 26% | -7%
Cc1cccc(N2CCN(C(=O)c3ccc4c(c3)N(Cc3cccc(Cl)c3)C(=O)c3ccccc3S4=O)CC2C)c1 (configuration not stated) | ? | ?

Following part
compound | 2A Renilla | StopGo FLuc
Fc1cccc(-c2nnn3c2nc(NCc2ccc4c(c2)OCO4)c2ccccc23)c1 | -15% | 55%[activator]
COc1ccc2c(c1)c1c(c(=O)n(-c3cccc(C)c3)c(=O)n1CC(=O)NCCC1=CCCCC1)n2C | -6% | -15%
COc1ccc(C(=O)CSc2nnc(CNC(=O)c3ccc(OC)c(OC)c3)n2C)cc1 | 0% | 8%
O=C(NCc1n[nH]c(=O)c2ccccc12)c1cc(Cl)ccc1Cl | -2% | 1%
CCCOc1c(C(=O)OC)sc2ccc(NC(=O)c3ccccc3)cc12 | 54%[activator] | -5%
CCN(CC)C(=O)CSc1nn(C)c2nc3c(c(=O)n12)C(C)(CC)Cc1ccccc1-3 (configuration not stated) | -7% | 1%
COC(=O)Cn1c(SC(C)C(=O)c2ccc(F)c(F)c2)nc2ccccc2c1=O (configuration not stated) | 12% | 17%
CCc1ccc(NC(=O)CN(c2ccc(OC)cc2)S(=O)(=O)c2c(C)[nH]c(=O)[nH]c2=O)cc1 | -4% | -10%
CCOC(=O)c1c(NC(=O)c2cc(-c3ccc(OC)c(OC)c3)on2)sc(C)c1C | -3% | -5%
O=C(CSc1nc2ccccc2s1)Nc1cc(F)ccc1F | 28% | 0%
O/N=C/c1ccccc1OCc1ccccc1 | -6% | 84%[activator]
O=C1c2oc3ccc(F)cc3c(=O)c2C(c2cccc([N+](=O)[O-])c2)N1CCCN1CCOCC1 (configuration not stated) | -8% | -1%
NC(=O)C(Oc1cc(Cl)ccc1Cl)c1ccccc1 (configuration not stated) | 16% | 23%
O=S(=O)(NCCCn1ccc2ccccc21)c1ccc(F)cc1 | 92%[activator] | 8%
CCc1ccc(C2=C(C)C(N3CCC(C(=O)Nc4cccc(OC)c4)CC3)=NS2(=O)=O)cc1 | 1% | 1%
O=C(O)C1CCN(C(=O)CCl)CC1 | -5% | -3%
Cc1ccc(C)c(CNC(=O)C2CCCCN2S(=O)(=O)c2ccc(F)cc2)c1 (configuration not stated) | 21% | -7%
O=C(NC1CCCCCC1)C1CCCN(C(=O)Cc2c[nH]c3ccccc23)C1 (configuration not stated) | 18% | 15%
Cc1ccc(NS(=O)(=O)c2ccc3c(c2)[C@H]2C=CC[C@H]2[C@@H](c2ccc(F)cc2)N3)cc1C | 18% | -16%
Cc1cccc(Cn2c(SCc3ccc(C(=O)N4CCC(C)CC4)cc3)nc3ccncc32)c1 | ? | ?
O=S(=O)(C/C=C/c1ccccc1)c1ccccc1 | 0% | 34%[activator]
CNC(=O)c1ccc(-c2nc(CN3CCN(S(=O)(=O)c4ccc(OC)cc4)CC3)c(C)o2)cc1 | -2% | 12%
COc1ccc2[nH]c(C(=O)NC(C)C(=O)Nc3nc(C)cs3)cc2c1OC (configuration not stated) | 6% | 43%[activator]
Cc1ccc(CNC(=O)[C@H](Cc2ccccc2)NC(=O)c2ccco2)n1C | -5% | -1%
Cc1ccc(NC(=O)c2ccc(CN3CC(=O)N4CCCCC4C3=O)cc2)cc1 (configuration not stated) | -12% | 16%

As a short view, some entries already given:
compound | 2A Renilla | StopGo FLuc
CCc1ccc(NC(=O)CN(c2ccc(OC)cc2)S(=O)(=O)c2c(C)[nH]c(=O)[nH]c2=O)cc1 | -4% | -10%
CCOC(=O)c1c(NC(=O)c2cc(-c3ccc(OC)c(OC)c3)on2)sc(C)c1C | -3% | -5%
O=C(CSc1nc2ccccc2s1)Nc1cc(F)ccc1F | 28% | 0%
O/N=C/c1ccccc1OCc1ccccc1 | -6% | 84%[activator]
O=C1c2oc3ccc(F)cc3c(=O)c2C(c2cccc([N+](=O)[O-])c2)N1CCCN1CCOCC1 (configuration not stated) | -8% | -1%

More results:
compound | 2A Renilla | StopGo FLuc
CCC(C)(C(=O)NC1CCCCC1)N(Cc1cccs1)C(=O)c1ccc2c(c1)OCO2 (configuration not stated) | 43%[activator] | 2%
CCOc1ccc2c(c1)c(=O)c(C(=O)c1ccc3c(c1)OCO3)cn2Cc1ccc(F)cc1 | ? | 25%
O=C(Nc1nonc1-c1ccc2c(c1)CCCC2)c1ccco1 | 4% | -10%
COc1ccc(NC(=O)CSc2nc(-c3cccs3)cc(C(F)(F)F)n2)cc1OC | ? | ?
CCOc1cc(CNCCSc2nnnn2-c2ccccc2)ccc1OC | 1% | 20%
COc1ccc(C(=O)Cn2c(C)cc(=O)n3c4ccccc4nc23)cc1OC | 16% | 25%
COc1ccc(CNC(=O)c2ccc3c(c2)nc2n3CCCCC2)cc1 | 0% | 92%[activator]
CCOP(=O)(OCC)c1nc(C(c2ccccc2)c2ccccc2)oc1NCc1cccnc1 | 19% | 15%
Cc1ccc(CNC(=O)CN(C)S(=O)(=O)c2ccc(Br)s2)cc1 | 37%[activator] | 14%
CC(OC(=O)c1cc[n+]([O-])cc1)C(=O)c1ccc(C(C)(C)C)cc1 (configuration not stated) | 73%[activator][1.06 µM] | 0%
Cn1c(C(=O)N2CCC(C(N)=O)CC2)cc2ccccc21 | -5% | -4%
O=C(CNc1cccc(S(=O)(=O)N2CCCCC2)c1)Nc1ccc(N2CCCC2)cc1 | -11% | -16%
O=[N+]([O-])c1cccc2nc(/C=C/c3ccc(O)cc3)ccc12 | -10%[1.06 µM] | 54%[activator]
CC(=O)Nc1ccc(NC(=O)C(C)n2nnc(-c3ccc(C(C)C)cc3)n2)cc1 (configuration not stated) | 14% | 108%[activator]
C=CCNC(=O)c1nn(Cc2ccccc2)c(=O)c2ccccc12 | 34%[activator] | 20%
O=C(NC1CC(=O)N(c2ccc(F)cc2)C1)c1ccc(S(=O)(=O)N2CCOCC2)cc1 (configuration not stated) | -8% | -10%
Cc1cccc(N(Cc2ccccc2)C(=O)c2cnccn2)c1 | 21% | 27%
CCCCn1c(=O)[nH]c(=O)c2c1nc(CSc1nnnn1C1CC1)n2CC | -11% | -6%
COc1cc(C#N)ccc1OC(C)C(=O)c1ccc2c(c1)CCC2 (configuration not stated) | 21% | 4%
CCN(C(=O)C(=O)c1c(C)[nH]c2ccccc12)c1cccc(Cl)c1 | -27% | ?
O=c1cc(O)c2sc3nc(C(F)(F)F)cc(C45CC6CC(CC(C6)C4)C5)c3c2[nH]1 | -9% | 25%
CCOc1ccc(-c2cc3c(=O)n(CC(=O)NCc4ccc(C)cc4)ccn3n2)cc1 | -13% | 32%
CCOC(=O)c1ccc(-c2ccc(/C=C(\C#N)C(=O)Nc3c(C)cccc3Cl)o2)cc1 | 34%[activator] | 134%[activator]
O=S(=O)(c1ccc2nc(NC3CCCCC3)ccc2c1)N1CCCC1 | 63%[activator] | 11%
CCC1Oc2ccccc2N(CC(=O)NCc2ccccc2)C1=O (configuration not stated) | 3% | 47%[activator]
Fc1ccc(NC(=S)N/N=C/c2ccc(C(F)(F)F)cc2)c(F)c1 | 6% | 83%[activator]
CCOC(=O)NC(Nc1ccc(F)c(F)c1)(C(=O)OCC)C(F)(F)F (configuration not stated) | 73%[activator] | 72%[activator]
C=C(C)COc1ccc2c(C)c(CC(=O)NCc3ccc4c(c3)OCO4)c(=O)oc2c1 | -14% | -7%
Clc1ccc(N/N=C/c2cccc(Br)c2)cc1Cl | 23% | 0%
Cc1cc2[nH]c(=O)c(=O)[nH]c2cc1S(=O)(=O)N1CCN(c2cccc(Cl)c2)CC1 | -6% | -14%
CCOC(=O)c1cc2cc(CC)ccc2[nH]1 | 0%[1.06 µM] | 202%[activator]
Cc1ccc(NC(=O)CN(C)C(=O)c2cc3cc(Cl)ccc3nc2C)cc1 | -7% | -16%
Cc1[nH]c2ccc(C(=O)NCCNC(=O)c3ccc(C(F)(F)F)cc3)cc2c1C | 8% | 5%
CC(=O)NCc1ccc(C(=O)NC(c2ccccc2)C(C)C)cc1 (configuration not stated) | 13% | 15%
